Assay outcomes from PubChem BioAssay.
VACV Venus inh – vaccinia inhibition (Venus reporter); Vaccinia virus Venus reporter expression, fluorescence; Potency, µM (titrated, usually from 36.5 µM), without a hit: top-dose activity change, negative = inhibition, hits mostly inhibitors; 330,000 compounds, 0.46% hits; active means well fitted inhibition curve with a large enough effect; inconclusive means small, poorly fitted or top-dose-only effect; inactive means no such curve, though single readings can be large or run the other way; tested in A549 cells; further: nearly all actives have a fitted effect of over 30% in size; inactives centre near -10
Vaccinia mCherry – inhibitors of vaccinia virus infection (mCherry reporter signal). Vaccinia virus mCherry reporter infection, fluorescence; about a quarter of the inactives have no number. Potency, µM (top dose mostly 36.5 µM), inactives show top-dose activity change, negative = inhibition, most hits filed as inhibitors. 310,000 compounds, 0.63% hits. AID 720579; active = well fitted inhibition curve with a large enough effect; inconclusive = small, poorly fitted or top-dose-only effect; inactive = no such curve, though single readings can be large or run the other way; tested in A549 cells; further: nearly all actives have a fitted effect of over 35% in size; inactives centre near -10
* = called active by the depositor; & = joins results of further samples; [ ] = dose if it differs, or a comment. On the % scale 0 is the no-effect control and ±100 the full control effect; potency means the concentration at half of the fitted maximal effect.

Results for COc1ccc(C2C(=O)N(C3CCCCC3)CC(=O)N2Cc2ccccc2Cl)cc1OC (stereo not given) ?
VACV Venus inh: -8%; Vaccinia mCherry: -8%

What do the screens show for `C=CCn1c(SCC(=O)Nc2ccc(-c3nc4ccc(C)cc4s3)cc2)nnc1-c1ccncc1`?
VACV Venus inh: -19%; Vaccinia mCherry: inactive

How did COc1ccc(-c2cn3c(n2)sc2cc(C(=O)NC4CCCc5ccccc54)ccc23)cc1 (stereo not given) do in these assays?
VACV Venus inh: 0%; Vaccinia mCherry: 3%

What do the screens show for `CCCC(OC(=O)CN1C(=O)COc2ccccc21)C(=O)NC1CCCC1` (stereo not given)?
VACV Venus inh: -5%; Vaccinia mCherry: 2%

What do the screens show for `CCOC(Cn1cc(C)c(=O)[nH]c1=O)OCC`?
VACV Venus inh: -3%; Vaccinia mCherry: -7%

How did CCOc1ccc(NC(=S)Nc2cc(-c3ccccc3)[nH]n2)cc1 do in these assays?
VACV Venus inh: -9%; Vaccinia mCherry: -24%

Results for O=C(CS(=O)(=O)Cc1ccccc1)Nc1ncccn1 ?
VACV Venus inh: -3%; Vaccinia mCherry: -5%

What do the screens show for `Cc1cc2c(cc1S(=O)(=O)NCc1ccccc1Cl)OCC(=O)N2`?
VACV Venus inh: -6%; Vaccinia mCherry: -3%

What do the screens show for `O=c1c2ccccc2n2c(-c3ccccc3F)nnc2n1CCc1ccccc1`?
VACV Venus inh: 8%; Vaccinia mCherry: -12%

What do the screens show for `O=C(Nc1cccc(Oc2ccccc2)c1)C1Cc2c(-c3cccc(F)c3)ccnc2O1` (stereo not given)?
VACV Venus inh: -3%; Vaccinia mCherry: inactive

Results for O=[N+]([O-])c1ccccc1/C=C/C=N/N1CCCCC1 ?
VACV Venus inh: -9%; Vaccinia mCherry: -22%

How did CSCCNC(=O)c1ccc(C(C)(C)C)cc1 do in these assays?
VACV Venus inh: -29%; Vaccinia mCherry: inconclusive

What do the screens show for `CC(C)Cc1nnc(NC(=O)CN2C(=O)C3CCCCC3C2=O)s1` (stereo not given)?
VACV Venus inh: -18%; Vaccinia mCherry: -9%

Results for CNC(=S)NNC(=O)COc1cccc(C)c1C ?
VACV Venus inh: 14%; Vaccinia mCherry: -6%[1.46 µM]

What do the screens show for `Cc1nc(-c2ccc(Cl)cc2)sc1CCNC(=O)c1cccs1`?
VACV Venus inh: 12%; Vaccinia mCherry: -1%

Results for O=C(c1ccccc1)n1ccc(-c2cnc(-c3ccccc3)s2)n1 ?
VACV Venus inh: -16%

Results for CCn1c(SCC(=O)NCCc2ccccc2)nc2c(c1=O)SC(C)C2 (stereo not given) ?
VACV Venus inh: 2%; Vaccinia mCherry: 23%

What do the screens show for `O=C(O)CCC(=O)Nc1ccccc1C(=O)NC1CCCCC1`?
VACV Venus inh: -3%

How did COc1ccc(NC(=O)CSc2nccn2Cc2ccco2)c(OC)c1 do in these assays?
VACV Venus inh: -4%&-16%; Vaccinia mCherry: -1%&-27%

Results for CN(C)C(CNC(=O)CCNC(=O)c1ccc(Cl)cc1)c1ccco1 (stereo not given) ?
VACV Venus inh: -11%; Vaccinia mCherry: -13%

How did Cc1ccccc1CC1(CO)CCCN(C(=O)c2cc(Cl)ccc2F)C1 (stereo not given) do in these assays?
VACV Venus inh: -10%; Vaccinia mCherry: -12%

Results for Cc1cccc(-c2noc(C(C)NC(=O)c3ccco3)n2)c1 (stereo not given) ?
VACV Venus inh: -3%; Vaccinia mCherry: 42%[activator]

How did Cc1onc(-c2ccccc2Cl)c1C(=O)N1CCCCC1 do in these assays?
VACV Venus inh: -4%; Vaccinia mCherry: -19%

How did Cc1ccc(S(=O)(=O)NC(C)C(c2cccs2)N2CCOCC2)cc1 (stereo not given) do in these assays?
VACV Venus inh: -5%; Vaccinia mCherry: inactive

Results for COc1ccc(C(=O)NNC(=O)c2cc3cc(OC)ccc3oc2=O)cc1 ?
VACV Venus inh: 10%; Vaccinia mCherry: -9%

What do the screens show for `O=C(COC(=O)c1cc([N+](=O)[O-])ccc1N1CCOCC1)NCc1ccc(F)cc1`?
VACV Venus inh: -2%; Vaccinia mCherry: -14%

What do the screens show for `CCOC(=O)/N=C(/NC(=O)Nc1ccc(C(=O)OCC)cc1)OC`?
VACV Venus inh: 4%; Vaccinia mCherry: inactive

How did Oc1ccccc1Nc1nc(NCc2ccccc2)c2ccccc2n1 do in these assays?
VACV Venus inh: inconclusive; Vaccinia mCherry: inconclusive

How did O=c1cc(-c2ccc(O)cc2)oc2ccc(O)cc12 do in these assays?
VACV Venus inh: -11%&-30%; Vaccinia mCherry: inconclusive

What do the screens show for `CCOc1ccc(-n2c(=O)c3c(C)c(C)sc3n(CC(=O)N3CCC(C)CC3)c2=O)cc1`?
VACV Venus inh: -14%; Vaccinia mCherry: -20%

What do the screens show for `COCCCn1c(SC(C)C(=O)Nc2c(C)n(C)n(-c3ccccc3)c2=O)n[nH]c1=O` (stereo not given)?
VACV Venus inh: -7%; Vaccinia mCherry: -7%

What do the screens show for `COc1ccccc1NC(=O)Cc1cccs1`?
VACV Venus inh: -7%; Vaccinia mCherry: inactive

What do the screens show for `CC(C)c1cnc2c(c1SCC(=O)N1CCCCC1)c(=O)n(C)c(=O)n2C`?
VACV Venus inh: -15%; Vaccinia mCherry: -21%

What do the screens show for `CC(C)c1ccc(NC(=O)CN2C(=O)CSc3ccc(S(=O)(=O)N4CCCC4)cc32)cc1`?
VACV Venus inh: -7%; Vaccinia mCherry: -9%

What do the screens show for `O=C(NC(Cc1ccccc1)C(=O)O)/C(=C/c1ccccc1)NC(=O)c1ccccc1` (stereo not given)?
VACV Venus inh: -6%; Vaccinia mCherry: -12%

Results for CC(C)Oc1ccc(S(=O)(=O)N2CCOCC2)cc1NC(=O)CC1OC(=O)c2ccccc21 (stereo not given) ?
VACV Venus inh: -4%; Vaccinia mCherry: -14%

Results for CN(CC(=O)Nc1ccc(F)c(F)c1F)C(=O)/C=C/c1ccco1 ?
VACV Venus inh: -6%; Vaccinia mCherry: -4%

How did CCOc1ccc(NC(=O)N2CCC(CN3CCCCCC3)CC2)cc1 do in these assays?
VACV Venus inh: -11%; Vaccinia mCherry: -5%

What do the screens show for `Cc1nc2ccc(NC(=O)c3cc(Cl)ccn3)cc2s1`?
VACV Venus inh: 0%; Vaccinia mCherry: inactive

Results for C[C@H](CO)N1C[C@H](C)[C@@H](CN(C)S(=O)(=O)c2ccccc2)Oc2c(NS(=O)(=O)c3cccs3)cccc2C1=O ?
VACV Venus inh: -5%; Vaccinia mCherry: -2%

How did CCOC(=O)C1=NNC(C(=O)c2ccc(OC)cc2)C1c1ccccc1 (stereo not given) do in these assays?
VACV Venus inh: -20%

Results for N/C(=N\OC(=O)/C=C/c1ccccc1Cl)c1ccncc1 ?
VACV Venus inh: -15%; Vaccinia mCherry: inactive

How did CCc1ccccc1NC(=O)Cn1c(=O)nc(-c2ccccc2)c2ccccc21 do in these assays?
VACV Venus inh: -2%; Vaccinia mCherry: -11%

How did COc1ccc(C(=O)c2cn(Cc3ccc(C)cc3)c3cc4c(cc3c2=O)OCO4)cc1 do in these assays?
VACV Venus inh: -5%[7.34 µM]; Vaccinia mCherry: -4%[7.34 µM]

Results for CCCN1CCN(CCCNC(=O)c2ccc3nc(N4CCCCC4)sc3c2)CC1 ?
VACV Venus inh: -24%; Vaccinia mCherry: inactive

What do the screens show for `CCN(c1ccc(NC(=O)CSc2nnc3nc(C)cc(C)n23)cc1)C(C)C`?
VACV Venus inh: -5%

What do the screens show for `Cc1ccccc1NC(=O)c1ccc(F)c(S(=O)(=O)N2CCN(c3ccccc3F)CC2)c1`?
VACV Venus inh: inconclusive; Vaccinia mCherry: -29%

How did CC(C)(C)n1nc2c(c1NC(=O)c1cccs1)CS(=O)C2 (stereo not given) do in these assays?
VACV Venus inh: -2%; Vaccinia mCherry: -9%

Results for Cc1ccc2cc(CN(CC3CCCO3)C(=O)c3cccs3)c(=O)[nH]c2c1 (stereo not given) ?
VACV Venus inh: -4%; Vaccinia mCherry: -15%

Results for CC(Sc1nnc(Cc2cccs2)n1C1CCCCC1)C(=O)NCc1ccco1 (stereo not given) ?
VACV Venus inh: -12%

What do the screens show for `COc1ccc2[nH]cc(C(=O)CNc3nccs3)c2c1`?
VACV Venus inh: -25%; Vaccinia mCherry: -27%

What do the screens show for `O=C(O)c1ccc(/C=C2/SC(=S)N(Cc3ccccc3)C2=O)cc1`?
VACV Venus inh: -3%; Vaccinia mCherry: -14%

Results for Cc1ccc(OCC(=O)Nc2cccc(-c3nc4ccccc4s3)c2)cc1 ?
VACV Venus inh: -5%; Vaccinia mCherry: -1%

What do the screens show for `CCSc1nc(-c2ccc(Cl)cc2)nc2c1Cc1c(CO)cnc(C)c1O2`?
VACV Venus inh: -15%; Vaccinia mCherry: -11%

Results for COc1ccc2cc(C(=O)C3CCCN(C(=O)CCc4cnn(C)c4)C3)ccc2c1 (stereo not given) ?
VACV Venus inh: -20%; Vaccinia mCherry: inactive

Results for O=C(COc1ccccc1F)Nc1ccc2nc(SCC(=O)N3CCc4ccccc43)sc2c1 ?
VACV Venus inh: -14%; Vaccinia mCherry: -19%

What do the screens show for `COc1cccc(NC2=CC(c3ccc(C(C)C)cc3)N(c3cccc(OC)c3)C2=O)c1` (stereo not given)?
VACV Venus inh: -8%; Vaccinia mCherry: -8%

Results for COc1cc(OC)c2nc(-c3cc4c(c(OC)c3)OCCN(C(=O)C(C)c3n[nH]c(=O)c5ccccc35)C4)cc(C)c2c1 (stereo not given) ?
VACV Venus inh: -12%; Vaccinia mCherry: inactive

Results for O=C(NCCc1ccccc1)c1ccc2c(c1)S(=O)(=O)c1ccccc1C2=O ?
VACV Venus inh: -13%; Vaccinia mCherry: -22%

What do the screens show for `O=C(/C=C/c1ccccc1)COC(=O)c1ccccc1`?
VACV Venus inh: -21%; Vaccinia mCherry: -2%

How did COc1ccccc1CNC(=O)C1CCN(S(=O)(=O)c2ccc3c(c2)CC(C)N3C(C)=O)CC1 (stereo not given) do in these assays?
VACV Venus inh: -10%; Vaccinia mCherry: -2%

Results for CC(C)N(C(=O)CN(C#N)c1nc(N(C)C)nc(N(C)C)n1)c1ccccc1 ?
VACV Venus inh: -10%; Vaccinia mCherry: -14%

What do the screens show for `CC(C)c1ccc(-c2nc(N3CCCCCC3)nc3n[nH]c(N)c23)cc1`?
VACV Venus inh: -8%; Vaccinia mCherry: inactive

Results for CC(C)c1cc(NCCN2CCOCC2)n2c(nc3ccccc32)c1C#N ?
VACV Venus inh: 7%; Vaccinia mCherry: 2%

How did COc1cc(CC(=O)OCC(=O)NC(C)c2ccccc2)cc(OC)c1OC (stereo not given) do in these assays?
VACV Venus inh: -12%; Vaccinia mCherry: -9%

Results for Cc1c(C(=O)N(C)C2CC(C)(C)NC(C)(C)C2)oc2c(F)cccc12 ?
VACV Venus inh: -17%; Vaccinia mCherry: -5%

How did CCOC(=O)NC(=O)CSc1nnnn1-c1ccc(Cl)cc1 do in these assays?
VACV Venus inh: -14%; Vaccinia mCherry: inactive

Results for Cc1ccc(NC(=O)CN2C(=O)C3(SCC(=O)N3c3ccc(F)c(F)c3)c3ccccc32)c(C)c1 (stereo not given) ?
VACV Venus inh: 3%; Vaccinia mCherry: 3%

Results for CCOc1ccc(-c2nnc(SCC(=O)NC3CCCCC3)nc2-c2ccc(OCC)cc2)cc1 ?
VACV Venus inh: -9%; Vaccinia mCherry: -13%

Results for CC(C)Nc1nc(NC(N)=S)nc(NC(C)C)n1 ?
VACV Venus inh: -22%; Vaccinia mCherry: -9%

Results for Cn1c(NCCO)nc2c(c1=O)C1(CCCCC1)Cc1ccccc1-2 ?
VACV Venus inh: -17%; Vaccinia mCherry: inactive

What do the screens show for `COc1ccc(C2OC3=C(Nc4cc(C)c(C)cc4N3)C2=O)cc1` (stereo not given)?
VACV Venus inh: -18%; Vaccinia mCherry: inactive

How did COc1ccc(OC)c(C2C(C(C)=O)=C(O)C(=O)N2c2ccc(O)cc2)c1 (stereo not given) do in these assays?
VACV Venus inh: -6%; Vaccinia mCherry: -11%

What do the screens show for `Clc1ccc(Cn2ncc3c(N4CCCCC4)ncnc32)cc1`?
VACV Venus inh: -11%

In the list so far, these have fluorine.
What do the screens show for `O=c1c2ccccc2n2c(-c3ccccc3F)nnc2n1CCc1ccccc1`?
VACV Venus inh: 8%; Vaccinia mCherry: -12%

What do the screens show for `O=C(Nc1cccc(Oc2ccccc2)c1)C1Cc2c(-c3cccc(F)c3)ccnc2O1` (stereo not given)?
VACV Venus inh: -3%; Vaccinia mCherry: inactive

How did Cc1ccccc1CC1(CO)CCCN(C(=O)c2cc(Cl)ccc2F)C1 (stereo not given) do in these assays?
VACV Venus inh: -10%; Vaccinia mCherry: -12%

What do the screens show for `O=C(COC(=O)c1cc([N+](=O)[O-])ccc1N1CCOCC1)NCc1ccc(F)cc1`?
VACV Venus inh: -2%; Vaccinia mCherry: -14%

Results for CN(CC(=O)Nc1ccc(F)c(F)c1F)C(=O)/C=C/c1ccco1 ?
VACV Venus inh: -6%; Vaccinia mCherry: -4%

What do the screens show for `Cc1ccccc1NC(=O)c1ccc(F)c(S(=O)(=O)N2CCN(c3ccccc3F)CC2)c1`?
VACV Venus inh: inconclusive; Vaccinia mCherry: -29%

Results for O=C(COc1ccccc1F)Nc1ccc2nc(SCC(=O)N3CCc4ccccc43)sc2c1 ?
VACV Venus inh: -14%; Vaccinia mCherry: -19%

Results for Cc1c(C(=O)N(C)C2CC(C)(C)NC(C)(C)C2)oc2c(F)cccc12 ?
VACV Venus inh: -17%; Vaccinia mCherry: -5%

Results for Cc1ccc(NC(=O)CN2C(=O)C3(SCC(=O)N3c3ccc(F)c(F)c3)c3ccccc32)c(C)c1 (stereo not given) ?
VACV Venus inh: 3%; Vaccinia mCherry: 3%
